VDR inh: blocks the human vitamin D receptor | P11473 | VDR-SRC2-3 peptide fluorescence polarization, 2 h | Potency, µM, without a hit: max response, negative = inhibition, actives largely listed as inhibitors | hit rate 0.93% among 400,000 | AID 504847; active = well fitted inhibition curve with a large enough effect; inconclusive = small, poorly fitted or top-dose-only effect, or another doubt; inactive = no such curve, though single readings can be large or run the other way; also: series mostly up to about 120 µM
Target sequence (P11473 whole entry, looked up): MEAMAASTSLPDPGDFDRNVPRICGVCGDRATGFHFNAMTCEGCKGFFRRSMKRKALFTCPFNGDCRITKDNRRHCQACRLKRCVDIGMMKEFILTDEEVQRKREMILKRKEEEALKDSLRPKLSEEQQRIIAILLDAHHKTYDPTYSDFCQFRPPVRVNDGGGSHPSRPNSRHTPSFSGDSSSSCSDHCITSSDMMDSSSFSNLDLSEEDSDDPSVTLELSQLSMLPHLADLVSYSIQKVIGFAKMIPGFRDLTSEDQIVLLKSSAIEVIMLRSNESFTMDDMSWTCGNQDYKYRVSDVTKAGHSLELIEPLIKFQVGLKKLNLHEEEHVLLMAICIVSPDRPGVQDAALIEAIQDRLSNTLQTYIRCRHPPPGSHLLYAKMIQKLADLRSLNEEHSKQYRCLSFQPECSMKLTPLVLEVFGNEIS
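Two reagent solutions held at 4 deg C in the dark were dispensed, compounds pinned at 23 nl, and the mixture incubated 2 h at room temperature. Read-out: fluorescence polarization of VDR–SRC2-3 peptide binding.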
* marks the source's active call; other numbers are inactive results; u = inconclusive; & = joins results of further samples; [ ] = another dose, or the depositor's remark. % is scaled to controls: 0 for no effect and ±100 for the full control effect; potency is read from the fitted curve at half-maximal effect. Not all compounds are listed; count on the stated rates, not on these rows.

SMILES | VDR inh
CCN(C(=O)C1CCN(S(=O)(=O)c2c(C)noc2/C=C/c2ccc(C)cc2)CC1)c1cccc(C)c1 | 5%
CCOc1ccc(N2CC(C(=O)NC3CCCCCC3)CC2=O)cc1 (centres undefined) | 2%
CCn1cc(C(=O)O)c(=O)c2cc(S(=O)(=O)N3CCCCCC3)ccc21 | 7%
Cc1ccccc1OCCCCCn1ccnc1 | -4%
Cc1sc2ncn(/N=C/c3ccco3)c(=O)c2c1C | 6%
Cc1ccc(NC(=O)C2C3/C=C\CCCCC32)cc1 (centres undefined) | -21%
CC(=O)N1CCSc2ccc(S(=O)(=O)Nc3ccc(C)cc3)cc21 | 1%
O=C1NC(=S)N/C1=C/c1ccc2c(c1)OCO2 | -10%
CC1=C(C(=O)OCCC#N)C(c2cc3c(cc2Br)OCO3)NC(=O)N1 (centres undefined) | -18%
CCCCCc1ccc(-c2ccc(/C=C/C(=O)O)cc2)nc1 | 0%
Cc1c(Cl)cccc1NC(=S)Nn1cnnc1 | 79µM*
NS(=O)(=O)c1cccc(NC(=O)COC(=O)c2ccccc2C(=O)c2ccccc2)c1 | 42%[activator]
COc1cc2[nH]c(=S)n(Cc3ccc(C)o3)c(=O)c2cc1OC | 3%
COc1cccc(NS(=O)(=O)c2ccc3c(c2)N(C(C)=O)CCO3)c1 | -9%
CCCCc1nc2cc(C(=O)N(C)CCc3cn[nH]c3)ccc2o1 | -14%
CC1CCC2(CC1)SCC(=O)N2c1ccc(F)cc1 (centres undefined) | 0%
CCN(CC(=O)NCc1cccs1)C(=O)c1cccc(S(=O)(=O)N(CC)c2ccccc2)c1 | 19%
COc1ccc(NC(=O)N2CCCC2C(=O)NCc2ccc(F)cc2)cc1 (centres undefined) | 4%
COC(=O)CNC(c1ccccc1Cl)c1cc(Br)ccc1NS(=O)(=O)c1ccc(C)cc1 (centres undefined) | -7%
COc1ccc(Cl)cc1N(CC(=O)Nc1ccccc1C(=O)NCc1ccco1)S(C)(=O)=O | -6%
COC(=O)c1[nH]c2ccc(C)cc2c1NC(=O)CN1CCN(c2ccccc2)CC1 | 8%
Cc1cc(C)nc(NC(=NCCc2c[nH]c3ccccc23)NC(=O)Nc2ccccc2)n1 | 1%
O=C(CSc1nc2ccc(Nc3nc(N4CCOCC4)nc(N4CCOCC4)n3)cc2s1)N1CCOCC1 | -23%
Cc1cccc2c(=O)c(-c3ccc4c(c3)OCO4)c(NC(=O)c3ccco3)oc12 | -12%
Clc1ccc(Cc2nn3c(Cn4nnc5ccccc54)nnc3s2)cc1 | -22%
Other compounds.
SMILES | VDR inh
CC(C)[C@H](NC(=O)c1ccccc1)C(=O)OCC(=O)/C=C1/N(C)c2ccccc2C1(C)C | 8%
COc1cccc(-c2nc(CS(=O)CC(=O)NCc3ccccc3Cl)c(C)o2)c1 (centres undefined) | -12%
CCOc1ccc(NC(=O)N2CCN(Cc3cc(=O)n4nc(-c5ccc(OC)cc5)sc4n3)CC2)cc1 | 0%
O=C(NCCO)c1cc(-c2cc(C(=O)NCCO)c3ccccc3n2)nc2ccccc12 | -4%
CCOc1ccccc1CN1CCN(Cc2ccon2)CC1CCO (centres undefined) | 9%
Cc1ccc(C(=O)C2CCOC(C)(C)C2)cc1 (centres undefined) | -17%
Cc1cc(C)c(NC(=O)C2C3/C=C\CCCCC32)c(C)c1 (centres undefined) | 25%
COc1cc(NC(=O)Cn2cnc3sc(C)c(S(=O)(=O)N4CCOCC4)c3c2=O)cc(OC)c1OC | -2%
O=C(Nc1nnc(CCS(=O)(=O)c2ccc(Br)cc2)s1)c1ccc([N+](=O)[O-])cc1 | -1%
O=C(COCCOCC(=O)N(c1ccccn1)C1CCCCC1)N(c1ccccn1)C1CCCCC1 | -6%
Cc1coc2cc3oc(=O)c(CCC(=O)O)c(C)c3cc12 | 7%
COc1ccc(OC)c(NC(=O)c2cccc(N3C(=O)C4C5CCC(C5)C4C3=O)c2)c1 (centres undefined) | 13%
Cc1ccc(NC(=O)COC(=O)CCC(=O)c2cccs2)c(Br)c1 | -8%
COc1ccccc1CN1CCCC(CN(CCN(C)C)C(=O)C2CCCC2)C1 (centres undefined) | 2%
O=C(Nc1ccc2nc(SCCOc3ccccc3)sc2c1)c1ccco1 | 7%
O=C(NS(=O)(=O)N1CCCC1)C1=C(N2CCCC2)COC1=O | -4%
COc1ccc(CN2CCN(Cc3ccc(Br)cc3)CC2)c(OC)c1OC | -11%
O=C1Nc2ccccc2C1(c1ccccc1)c1ccccc1 | -1%
Cc1nn(CCOc2ccccc2)c(=O)n1-c1ccc(Cl)cc1 | -9%
COC(=O)c1sccc1-c1ccc(C(=O)Nc2cccnc2)o1 | -4%
COc1ccc(S(=O)(=O)N2CCCC(C(=O)Nc3ccc4c(c3)OCCO4)C2)cc1 (centres undefined) | 7%
CC1=CC(C)(C)N(C(=O)CSc2nnc(N)s2)c2ccccc21 | -10%
CSCCCNC(=S)N(C)CC(=O)Nc1ccc(C)cc1 | 1%
O=C(CCc1nc(-c2ccccc2Cl)no1)NCCc1ccccc1 | 14%
O=C1CCC/C1=C/Nc1ccc2c(c1)OCO2 | 5%

27 successive compounds out of the list so far, for reference:
SMILES | VDR inh
Cc1cc(C)nc(NC(=NCCc2c[nH]c3ccccc23)NC(=O)Nc2ccccc2)n1 | 1%
O=C(CSc1nc2ccc(Nc3nc(N4CCOCC4)nc(N4CCOCC4)n3)cc2s1)N1CCOCC1 | -23%
Cc1cccc2c(=O)c(-c3ccc4c(c3)OCO4)c(NC(=O)c3ccco3)oc12 | -12%
Clc1ccc(Cc2nn3c(Cn4nnc5ccccc54)nnc3s2)cc1 | -22%
CC(C)[C@H](NC(=O)c1ccccc1)C(=O)OCC(=O)/C=C1/N(C)c2ccccc2C1(C)C | 8%
COc1cccc(-c2nc(CS(=O)CC(=O)NCc3ccccc3Cl)c(C)o2)c1 (centres undefined) | -12%
CCOc1ccc(NC(=O)N2CCN(Cc3cc(=O)n4nc(-c5ccc(OC)cc5)sc4n3)CC2)cc1 | 0%
O=C(NCCO)c1cc(-c2cc(C(=O)NCCO)c3ccccc3n2)nc2ccccc12 | -4%
CCOc1ccccc1CN1CCN(Cc2ccon2)CC1CCO (centres undefined) | 9%
Cc1ccc(C(=O)C2CCOC(C)(C)C2)cc1 (centres undefined) | -17%
Cc1cc(C)c(NC(=O)C2C3/C=C\CCCCC32)c(C)c1 (centres undefined) | 25%
COc1cc(NC(=O)Cn2cnc3sc(C)c(S(=O)(=O)N4CCOCC4)c3c2=O)cc(OC)c1OC | -2%
O=C(Nc1nnc(CCS(=O)(=O)c2ccc(Br)cc2)s1)c1ccc([N+](=O)[O-])cc1 | -1%
O=C(COCCOCC(=O)N(c1ccccn1)C1CCCCC1)N(c1ccccn1)C1CCCCC1 | -6%
Cc1coc2cc3oc(=O)c(CCC(=O)O)c(C)c3cc12 | 7%
COc1ccc(OC)c(NC(=O)c2cccc(N3C(=O)C4C5CCC(C5)C4C3=O)c2)c1 (centres undefined) | 13%
Cc1ccc(NC(=O)COC(=O)CCC(=O)c2cccs2)c(Br)c1 | -8%
COc1ccccc1CN1CCCC(CN(CCN(C)C)C(=O)C2CCCC2)C1 (centres undefined) | 2%
O=C(Nc1ccc2nc(SCCOc3ccccc3)sc2c1)c1ccco1 | 7%
O=C(NS(=O)(=O)N1CCCC1)C1=C(N2CCCC2)COC1=O | -4%
COc1ccc(CN2CCN(Cc3ccc(Br)cc3)CC2)c(OC)c1OC | -11%
O=C1Nc2ccccc2C1(c1ccccc1)c1ccccc1 | -1%
Cc1nn(CCOc2ccccc2)c(=O)n1-c1ccc(Cl)cc1 | -9%
COC(=O)c1sccc1-c1ccc(C(=O)Nc2cccnc2)o1 | -4%
COc1ccc(S(=O)(=O)N2CCCC(C(=O)Nc3ccc4c(c3)OCCO4)C2)cc1 (centres undefined) | 7%
CC1=CC(C)(C)N(C(=O)CSc2nnc(N)s2)c2ccccc21 | -10%
CSCCCNC(=S)N(C)CC(=O)Nc1ccc(C)cc1 | 1%

Carrying on.
SMILES | VDR inh
Cc1ccc(Cl)cc1N1CCN(CCNC(=O)Nc2ccc(Cl)cc2)CC1 | -7%
O=C(Oc1ccc(=O)n(-c2ccccc2)n1)c1ccccc1 | 14%
O=C(O)c1cccc(S(=O)(=O)N2CCCC(c3nc4c(nnn4Cc4ccc(F)cc4)c(=O)[nH]3)C2)c1 (centres undefined) | 0%
Cc1ccccc1NS(=O)(=O)c1ccc(C(=O)NCCCN2CCOCC2)cc1 | -15%
Cc1c(NC(=O)C(C)OC(=O)CNC(=O)c2ccc(C(C)(C)C)cc2)c(=O)n(-c2ccccc2)n1C (centres undefined) | 0%
Cc1ccccc1C(=O)Nc1cccc(NC(=O)c2ncn[nH]2)c1 | -9%
Oc1ccc(OCc2ccccc2)cc1 | -6%
O=C(c1c(F)cccc1F)N1CCN(CCOc2ccccc2)CC1 | 0%
CC1CC(C)CN(CCCNC(=O)C2CCC(=O)N2C2CCCC2)C1 (centres undefined) | 11%
CC(C)CC1CC(=O)OC1(C)C(=O)CSc1nc2ccccc2s1 (centres undefined) | -19%
CSCCC(NC(=O)c1ccco1)C(=O)OC(C)C(=O)NC(=O)NC1CCCCC1 (centres undefined) | -11%
CCn1cc(C(=O)N2CCc3ccccc32)c(=O)c2cc(S(=O)(=O)N(C)C3CCCCC3)ccc21 | -8%
O=C(CSc1ccc(F)cc1)N1CCOCC1 | 2%
Cn1cccc1/C=C1\Cc2ccccc2C1=O | -10%
COc1cccc(C2NC(=O)NC(C)=C2C(=O)OCCSC)c1OC (centres undefined) | -8%
O=C(COC(=O)Cn1nnc2ccccc21)Nc1ccccc1Br | u
COc1ccc(CCNC(=O)c2ccc(-n3c(C)cc4c3CCCC4)cc2)cc1OC | 4%
Cc1cc(NC(=O)CCCN2C(=O)/C(=C/c3cccs3)SC2=S)no1 | 8%
O=C(c1cc([N+](=O)[O-])ccc1Cl)N1c2ccccc2Sc2ccccc21 | -6%
O=C(Cc1ccccc1)Nc1ccc(N2CCCCC2)cc1 | 1%
Cc1ccc(-c2ccc(/C=N\n3cnnc3)o2)c(Br)c1 | 8%
O=C(NCn1ccc(=O)[nH]c1=S)c1ccccc1 | 0%
CCN(CCO)C(=S)Nc1cc(S(=O)(=O)N(C)C)ccc1C | -8%
O=C(NC12CC3CC(CC(C3)C1)C2)c1ccc(N2CCNCC2)c([N+](=O)[O-])c1 | 4%
Cc1ccc(SCC(=O)N2CCN(c3ccccn3)CC2)cc1 | 8%

A portion taken from the entries so far, for reference:
SMILES | VDR inh
O=C(Cc1ccccc1)Nc1ccc(N2CCCCC2)cc1 | 1%
Cc1ccc(-c2ccc(/C=N\n3cnnc3)o2)c(Br)c1 | 8%

New compounds follow:
SMILES | VDR inh
CC1(C)CCC[C@@]2(C)C1CC[C@@](C)(O)[C@@H]2CC[C@@](C)(O)C1CO1 (some centres undefined) | -2%
Cc1cc(C)c(NC(=O)c2cccs2)c(C)c1NC(=O)c1cccs1 | -9%
COc1ccc(C(CC(=O)N2CCCC2)c2c(OC)cc(OC)c3c(-c4ccccc4)cc(=O)oc23)cc1 (centres undefined) | -1%&-17%
O=C1C(C=Nc2ccccc2O)=C(O)c2ccccc21 | 22%
O=C(NC1CCCC1)C1CC(c2ccc(F)cc2)=NO1 (centres undefined) | -16%
C=CCN(c1ccccc1C(=O)NCC(=O)O)S(=O)(=O)c1ccc(C)cc1 | 8%
Cc1ccc(-n2nc3c(=O)n(CC(=O)NCCCc4ccccc4)nc(C)c3c2C)cc1 | -5%
OC(CCc1cccc(Cl)c1)c1cccs1 (centres undefined) | u
Cc1cc(NC(=O)c2cnc3c(-c4ccccc4)c(C)nn3c2C)ccc1Br | -2%
CCCCC(=O)Nc1ccc(C(=O)Nc2nnc(COC)s2)cc1 | 2%
CCOC(=O)NN1C(=O)c2ccccc2NC1c1ccccn1 (centres undefined) | 9%
COc1ccc(/C=N/N2C(=O)C3C4C=CC(CC4)C3C2=O)c(OC)c1 (centres undefined) | -5%
Cc1ccc(S(=O)(=O)N2CCOCC2)cc1NC(=O)COC(=O)CSc1ccc(Br)cc1C | -12%
CCN(CC(=O)Nc1c(F)cccc1F)C(=O)CCc1c[nH]c2ccccc12 | -1%
CN(C)S(=O)(=O)n1cnc([C@H]2c3c(ncn3Cc3ccccc3)C[C@H]3COC(=O)[C@@H]32)c1 | -23%
C=C(C)C(=O)/C=C/CCC/C=C/C(=O)OCC | u
COCCNC(=O)CN1CCC(n2c(C)nc3cc(C(F)(F)F)ccc32)CC1 | -8%
CCC1=NN2C(=N)/C(=C\c3ccc(OCCOc4ccccc4OC)cc3)C(=O)N=C2S1 | 8%
COc1ccc(-c2ccc(-c3cc(=O)oc4cc(C)cc(C)c34)cc2)cc1 | u
O=C(NCc1cc(C(F)(F)F)ccc1F)C1CCC(=O)N(C2CC2)C1 (centres undefined) | -22%
Cc1ccc(S(=O)(=O)Nc2cc3c(cc2N2CCOCC2)n(C)c(=O)n3C)cc1 | 3%
NC(=O)[C@@H]1CCCNc2c(I)cc([N+](=O)[O-])cc2C(=O)N[C@@H](CCC(=O)O)C(=O)N[C@@H](CO)C(=O)N1 | -13%
COC(=O)c1cc2sccc2n1Cc1nc(-c2ccc(Cl)cc2)oc1C | 8%&4%
O=C(O)/C=C/c1ccc(S(=O)(=O)Nc2ccc3[nH]c(=O)[nH]c3c2)cc1 | 0%
